# Bioassay records from PubChem BioAssay.
# BJeLR lethal: MLPCN primary cell-based screen for lethality selective to Ras in HRASV12 cells; BJeLR (HRASV12) viability, CellTiter-Glo ATP luminescence, 48 h; reference of the scale not given here; inhibition, % (no concentration beside the values); 300,000 compounds, 0.17% hits; AID 1554, 2009;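 active = replicate mean above 50%; inconclusive = above 50% but judged a plate artefact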;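 note: 50 nL library stock added to about 25 µL; numbers are from one replicate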
# Mtb hypoxia inh: PubChem AID 1159583. M. tuberculosis hypoxia-regulated fluorescent reporter, fluorescence. fluorescence inhibition, % (test concentration not listed). 300,000 compounds, 0.1% hits;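 active = 35 to 45% if threefold the growth effect, above 45% if 1.5-fold the growth effect; inactive = the rest, general growth blockers included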;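 note: wells of about 50 µL received 100 nL stock; 0% = vehicle wells and 100% = reference inhibitor wells; whole bacteria with a GFP reporter of the hypoxia response; strong numbers were not always called active; many hits fall short of the cut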
# ugtP null kill: growth inhibition of ugtP-null S. aureus, primary screen, RN4220 ugtP deletion, OD600. 330,000 compounds, 0.54% hits. growth inhibition, % (no concentration beside the values). 16 h; some inactives read as strong as hits. AID 1259309, 2017;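 active = z-score under -3 and OD600 up to 0.15 on both plates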;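 note: plate controls were untreated wells for no effect and antibiotic for full effect; wells of about 80 µL received 100 nL stock; the first replicate is given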
# Bead autofluor: flagged as autofluorescent in microsphere protease counterscreen; compound autofluorescence counterscreen, microsphere flow cytometry; active compounds read high; fluorescence intensity (no concentration beside the values); 360,000 compounds, 3.1% hits; AID 624483;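 active = at least 3 SD above the mean of all compounds, about 16000 in these data; inconclusive = too few beads counted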;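 note: 100 nL of 1 mM stock went into each well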
# PrP 5UTR inh: inhibition of PrP 5' UTR reporter expression; cell-based PrP 5' UTR mRNA reporter, plate reader; inhibition, % (concentration not given with the values); 340,000 compounds, 0.35% hits;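 active = every replicate at 50% or more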;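 note: 0 = median of the neutral control wells; tested in H4 reporter cells; numbers are from one replicate; inactives centre near -14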
# Sa RN4220 lethal: growth inhibition of S. aureus RN4220, primary screen, OD600. 16 h. inhibition, % (concentration not given with the values). 330,000 compounds, 0.33% hits;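 active = z-score of -3 or lower and OD600 up to 0.18 on both plates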;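 note: plate controls were untreated cells for no effect and reference antibiotic for full effect; stock transfer was 100 nL into about 80 µL; one replicate is shown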
# Mtb hypoxia inh growth: further read-out of Mtb hypoxia inh, marked with its call; growth inhibition, %; measured here: M. tuberculosis growth (absorbance);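 0% = vehicle and 100% = reference antibiotic; read after six days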
# Starred values were filed as active, the others as inactive; ? = inconclusive; nt = no result given. Hits appear at their usual frequency; any-hit rate near 4%.
1) O=C(C[n+]1cc(-c2ccc(Cl)c(Cl)c2)n2c1CCC2)OCc1ccccc1
2) O=C(C1=C[C@H](c2ccc(C(F)(F)F)cc2)C[C@H](OCc2ccc(CO)cc2)O1)N1CCN(Cc2ccccc2)CC1
3) Cc1ccc(NC(=O)CSc2nc3[nH]ncc3c(=O)[nH]2)cc1Cl
4) COc1ccc(CN2C(=O)CSC2=NN=Cc2cccs2)cc1
5) CCOC(=O)N1CCN(S(=O)(=O)c2ccc(Br)cc2)CC1
6) O=C(CSC1=NS(=O)(=O)c2ccccc2N1)c1ccccc1
7) COc1cccc(OC)c1C(=O)Nc1ccccc1N1CCCC1
8) O=C1c2ccccc2S(=O)(=O)N1CC(O)Cn1ccc2ccccc21 (stereo unspecified)

assay / compound	1	2	3	4	5	6	7	8
BJeLR lethal	-16	3	0	nt	4	-3	-3	-8
Mtb hypoxia inh	13	nt	1	7	-17	-1	nt	nt
Mtb hypoxia inh growth	4	nt	8	-6	-8	-2	nt	nt
ugtP null kill	5	nt	-1	6	6	4	5	-6
Bead autofluor	2355	3866	?	nt	3909	6030	3921	22501*
PrP 5UTR inh	-15	-14	-3	nt	-6	-56	-12	-20
Sa RN4220 lethal	0.2	nt	0.4	1.3	1.4	2.2	3.1	0.8

9) O=C(N=C1SC2CS(=O)(=O)CC2N1c1ccc(Cl)cc1Cl)C1CCCO1 (stereo unspecified)
10) Cc1cc(C)c(C#N)c(N2CCN(c3ccccc3)CC2)n1
11) CCN1CCCC1CNCc1cc(OC)c(OC)c(OC)c1 (stereo unspecified)
12) N#Cc1nc(-c2ccc(OCc3ccc(Cl)cc3)cc2)oc1N1CCC(C(N)=O)CC1
13) CCOc1ccc(NC(=O)CN(C)S(=O)(=O)c2cccc3cccnc23)cc1
14) COC(=O)C1C(=O)OC(C)(C)C1C(C)C(=O)c1ccc(C)cc1C (stereo unspecified)
15) CSCCC(NS(=O)(=O)c1ccc(C)cc1)C(=O)NC1CCCCCC1 (stereo unspecified)
16) CC1CCc2sc(C(=O)NCCCn3ccnc3)cc2C1 (stereo unspecified)

assay / compound	9	10	11	12	13	14	15	16
BJeLR lethal	-2	-6	-5	10	-8	1	1	3
Mtb hypoxia inh	1	9	8	0	-7	5	-4	3
Mtb hypoxia inh growth	-6	5	5	-10	-2	0	10	-1
ugtP null kill	-3	-3	-1	-3	6	4	1	11
Bead autofluor	3953	3884	24874*	5242	5724	4232	5802	4998
PrP 5UTR inh	6	-7	12	-23	-16	18	-8	-17
Sa RN4220 lethal	-2.7	13	0.2	4.0	1.1	8.3	-0.3	0.2

17) CCOC(=O)C(C)On1c(SC(C)C(=O)OCC)nc2ccccc2c1=O (stereo unspecified)
18) O=C(CSc1ncnc2ccccc12)N1CCNC1=O
19) COc1ccccc1NC(=O)OC(C)c1ccc(Cl)cc1 (stereo unspecified)
20) CCN1C(=O)c2c(C)nc3ccccc3c2C1=O
21) O=C1C2C3C=CC(C3)C2C(=O)N1c1nc2ccccc2s1 (stereo unspecified)
22) COc1cccc(C(=O)Nc2ccc(NC(=O)c3ccco3)cn2)c1
23) COc1ccc(C(=O)Nn2c(CC(C)C)nc3cc(Cl)ccc3c2=O)c(OC)c1
24) CCOC(=O)c1ccc(-c2ccc(/C=N/NC(=O)CN(c3ccccc3Br)S(C)(=O)=O)o2)cc1

assay / compound	17	18	19	20	21	22	23	24
BJeLR lethal	-1	nt	-2	-11	9	1	4	-4
Mtb hypoxia inh	10	14	16	3	5	-3	0	nt
Mtb hypoxia inh growth	2	34	0	8	9	4	-2	nt
ugtP null kill	9	-1	22	-2	-7	-8	13	nt
Bead autofluor	11833	2898	4485	20844*	2497	3432	3305	2252
PrP 5UTR inh	-25	-40	-15	-17	-14	-59	-31	-26
Sa RN4220 lethal	1.7	4.0	1.0	1.1	-5.4	-0.5	4.8	nt

25) CCn1c(Cc2ccccc2)nnc1SCC(=O)N1CCCC1=O
26) COc1ccccc1NC(=O)COc1ccc(/C=N/NC(=O)CSCc2cc(C)cc(C)c2)cc1
27) Cn1nc(C(=O)N2CCN(c3ccc(F)cc3)CC2)c2c1-c1ccccc1S(=O)(=O)C2
28) CC(C)N(C(=O)CSc1nnnn1-c1ccc2c(c1)OCO2)C(C)C
29) Cc1sc2nc(CN3CCOCC3)nc(N3CCC(C(N)=O)CC3)c2c1C
30) O=[N+]([O-])c1ccc(/C=N\NS(=O)(=O)c2ccc(F)cc2)o1
31) COc1ccc2c(c1OC)C(=O)NC(C)=C(C(=O)OC(C)(C)C)C2O (stereo unspecified)
32) Cc1cc(C)cc(NC(=O)Cn2nnc(C(=O)NCc3ccccc3Cl)c2N)c1

assay / compound	25	26	27	28	29	30	31	32
BJeLR lethal	2	-14	-4	2	-15	0	-5	-5
Mtb hypoxia inh	5	nt	4	-17	5	nt	6	-3
Mtb hypoxia inh growth	1	nt	-7	-14	-1	nt	-2	2
ugtP null kill	-1	nt	6	-2	9	nt	6	-8
Bead autofluor	5017	2778	4633	4580	3332	4421	5705	5267
PrP 5UTR inh	-2	-18	3	-27	-7	-12	-6	6
Sa RN4220 lethal	3.8	nt	1.7	2.3	9.2	nt	5.7	-3.6

33) CCCC(C)NC(=O)CSc1nnc2ccccn12 (stereo unspecified)
34) COc1cc(NC(=O)CN2C(=O)c3ccccc3S2(=O)=O)c(OC)cc1Cl
35) COc1ccccc1NC(=O)C1C2C=CC3(CN(Cc4cccnc4)C(=O)C13)O2 (stereo unspecified)
36) COc1ccc([C@@H]2[C@@H]3C(=O)N(C(C)(C)C)C(=O)[C@@H]3[C@]3(CC(C)C)C(=O)N(c4cccc(F)c4)C(=O)N23)cc1
37) CCCCN(C(=O)C1=NN(c2ccccc2)C(=O)CC1)c1c(N)n(CC(C)C)c(=O)[nH]c1=O
38) O=C(Cc1cccs1)Nc1cccc([N+](=O)[O-])c1
39) CCCN(C(=O)c1cc(C)ccc1C)c1c(N)n(Cc2ccccc2)c(=O)[nH]c1=O
40) Cc1occc1-c1nnc(SCC(=O)N2CC(=O)Nc3ccccc32)n1CC(C)C

assay / compound	33	34	35	36	37	38	39	40
BJeLR lethal	-2	7	7	13	nt	-5	nt	-5
Mtb hypoxia inh	8	nt	7	nt	2	-1	8	nt
Mtb hypoxia inh growth	-2	nt	7	nt	7	3	5	nt
ugtP null kill	8	2	-7	nt	-1	-7	3	0
Bead autofluor	4754	3345	6523	3635	4222	2513	5593	2995
PrP 5UTR inh	-16	-7	0	-22	-5	1	-17	-6
Sa RN4220 lethal	2.4	2.1	-7.3	nt	3.7	7.5	-0.9	3.6

# 2 of the compounds above, as labelled records:
[34] COc1cc(NC(=O)CN2C(=O)c3ccccc3S2(=O)=O)c(OC)cc1Cl
  BJeLR lethal: 7
  Mtb hypoxia inh: nt
  Mtb hypoxia inh growth: nt
  ugtP null kill: 2
  Bead autofluor: 3345
  PrP 5UTR inh: -7
  Sa RN4220 lethal: 2.1

[35] COc1ccccc1NC(=O)C1C2C=CC3(CN(Cc4cccnc4)C(=O)C13)O2 (stereo unspecified)
  BJeLR lethal: 7
  Mtb hypoxia inh: 7
  Mtb hypoxia inh growth: 7
  ugtP null kill: -7
  Bead autofluor: 6523
  PrP 5UTR inh: 0
  Sa RN4220 lethal: -7.3

# (cont.)
41) COc1ccc(CNC(=O)CNC(=O)c2c(C)nn(C)c2Cl)cc1
42) CCCN(CCC)S(=O)(=O)c1ccc(C)cc1
43) CCN1CCN(CCOc2ccccc2OCc2ccccc2)CC1
44) Cc1ccc(S(=O)(=O)NCc2ccc(C(=O)NCc3cccnc3)cc2)cc1
45) COc1ccc([N+](=O)[O-])cc1NC(=O)C(C)Sc1ccc(C)cc1 (stereo unspecified)
46) COc1ccccc1CCN1CCCC(CN(C)Cc2ccc(OCCO)cc2)C1 (stereo unspecified)
47) O=C(OCc1ccc([N+](=O)[O-])cc1)c1ccccn1
48) Cc1c(OCc2ccc(C(=O)O)cc2)ccc2c(-c3ccccc3)cc(=O)oc12

assay / compound	41	42	43	44	45	46	47	48
BJeLR lethal	-4	-3	-7	-6	-5	-10	-1	2
Mtb hypoxia inh	8	15	10	2	8	-3	-2	18
Mtb hypoxia inh growth	6	6	2	13	1	-11	-1	17
ugtP null kill	3	-2	4	-14	1	4	10	39
Bead autofluor	4348	5765	4205	nt	2361	nt	2093	4576
PrP 5UTR inh	0	-1	1	nt	-61	-7	-9	-9
Sa RN4220 lethal	3.5	8.6	5.6	0.3	-3.2	-2.1	7.0	17

# In the list so far, these have a cyano group.
10) Cc1cc(C)c(C#N)c(N2CCN(c3ccccc3)CC2)n1
12) N#Cc1nc(-c2ccc(OCc3ccc(Cl)cc3)cc2)oc1N1CCC(C(N)=O)CC1

assay / compound	10	12
BJeLR lethal	-6	10
Mtb hypoxia inh	9	0
Mtb hypoxia inh growth	5	-10
ugtP null kill	-3	-3
Bead autofluor	3884	5242
PrP 5UTR inh	-7	-23
Sa RN4220 lethal	13	4.0

# Following part.
49) COc1ccccc1N1CCN(Cc2ccc(OC)c(OC)c2OC)CC1
50) O=C(Cc1ccc(S(=O)(=O)N2CCCC2)s1)N1CCN(c2ccccc2)CC1
51) Cc1nn(CCCC(=O)Nc2nccs2)c(C)c1[N+](=O)[O-]
52) COc1ccc(OCC(=O)NNC(=O)c2cccc(S(=O)(=O)N(C)C)c2)cc1
53) CC(C)(C)c1ccc(/C=N/NC(=O)c2ccccn2)cc1
54) Cc1ccccc1CSCc1nc2ccccc2[nH]1
55) Cc1cnc(NC(=O)COc2cccc3c2OC(C)(C)C3)s1
56) CCOCCCn1c(=NC(=O)c2cccs2)c(C#N)cc2c(=O)n3cccc(C)c3nc21

assay / compound	49	50	51	52	53	54	55	56
BJeLR lethal	7	4	-3	-5	5	-2	31	-6
Mtb hypoxia inh	9	-9	11	4	nt	13	-2	2
Mtb hypoxia inh growth	5	-5	5	9	nt	11	-5	-2
ugtP null kill	8	4	5	8	nt	2	4	6
Bead autofluor	?	3248	4026	7319	3728	2001	4710	4037
PrP 5UTR inh	-17	-17	-27	-12	-17	2	22	2
Sa RN4220 lethal	6.4	1.2	-0.5	1.0	nt	1.7	1.3	4.2

# Values by screen from the entries so far:
# Nos. 49 to 56 in ugtP null kill read 8, 4, 5, 8, nt, 2, 4, 6
# Nos. 49 to 56 in Mtb hypoxia inh growth read 5, -5, 5, 9, nt, 11, -5, -2
# Nos. 49 to 56 in Mtb hypoxia inh read 9, -9, 11, 4, nt, 13, -2, 2

# (listing goes on)
57) O=CN1CCN(CC(O)Cn2c3ccccc3c3ccccc32)CC1 (stereo unspecified)
58) Cc1cc(NC(=O)COc2ccc(Cl)cc2Cl)n(-c2ccccc2)n1
59) O=C(CN1C(=O)NC2(CCCC2)C1=O)NCc1ccc(F)cc1
60) O=C(O)CCCC[C@@H]1SC[C@@H]2NC(=O)N[C@@H]21
61) CCn1c(=O)c2c(nc3n2CCCN3CCc2ccccc2)n(C)c1=O
62) C=CCNC(=O)N1CCCC(C(=O)c2cccc(OC(C)C)c2)C1 (stereo unspecified)
63) COc1ccc(C(=O)NCC(=O)Nc2ccccc2)cc1OC
64) Fc1ccc(/C=C\c2nccc3c2[nH]c2ccccc23)cc1

assay / compound	57	58	59	60	61	62	63	64
BJeLR lethal	-2	5	nt	3	-5	1	-15	6
Mtb hypoxia inh	0	10	8	nt	nt	0	1	3
Mtb hypoxia inh growth	16	8	9	nt	nt	5	5	3
ugtP null kill	0	-2	4	0	2	7	-7	71
Bead autofluor	3962	3337	3995	1734	2707	3288	2917	6526
PrP 5UTR inh	-7	-16	-12	0	-12	-40	-14	-11
Sa RN4220 lethal	-2.2	-8.1	2.9	3.4	2.8	1.4	1.7	68

65) CNC(=O)NC(=O)Cn1nc2n(c1=O)-c1ccccc1SC2
66) CSCCC(NC(=O)c1ccco1)C(=O)OCC(=O)Nc1ncc(Cl)c(C)c1Cl (stereo unspecified)
67) O=C(NC1CCCCC1)c1nn2c(C(F)(F)F)cc(-c3ccco3)nc2c1Br
68) Cc1ccc(C)c(N2CCN(c3ccc([N+](=O)[O-])cn3)CC2)c1
69) CC(=O)c1ccc(N2CCN(C(=O)c3cc4c(C)nc5ccccc5c4o3)CC2)cc1
70) CCOC(=O)Cc1csc(NC(=O)COc2cc(C)cc(C)c2)n1

assay / compound	65	66	67	68	69	70
BJeLR lethal	-1	1	6	-16	8	4
Mtb hypoxia inh	13	nt	nt	-2	2	7
Mtb hypoxia inh growth	5	nt	nt	3	6	-1
ugtP null kill	5	-6	1	6	-6	4
Bead autofluor	5340	2285	3484	3933	5852	4253
PrP 5UTR inh	-25	38	-6	-20	13	38
Sa RN4220 lethal	0.5	-0.5	11	4.9	6.1	4.0
